Screens (PubChem)
Beta cell apopt: blocks beta cell apoptosis; AID 435005; protection from apoptosis, % (test concentration not listed); 300,000 compounds, 0.8% hits; INS-1E cytokine-induced death, ATP luminescence, 48 h; percent of positive-control rescue, neutral wells zero;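 active = all replicates at 75% or more, or half of them and the mean; inconclusive = half reach 75% but not the mean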;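 note: 0% = cytokine-treated negative control wells and 100% = positive control rescue; higher means more ATP so stronger rescue from cytokine killing; wells of about 40 µL received 100 nL stock; the first replicate is given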
rRNA inh HTS: inhibitors of bacterial rRNA selective over humanized ribosomes; E. coli WT GFP vs humanized-ribosome RFP mutants, fluorescence, 24 h; active compounds read low; DMSO median 0, no signal -100; GFP signal change (wild-type ribosome), % (test concentration not listed); 350,000 compounds, 1.6% hits;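 active = significant combined selectivity score with lowered wild-type GFP, culture density cut under 30%, mutant RFP and density less affected; inactive = any of these conditions unmet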; note: one replicate is shown; some compounds called inactive have numbers as strong as hits
MLL AF4-AF9 inh: inhibitors of human MLL-AF4/AF9 interaction; AlphaScreen, biotin-AF4 peptide binding to FLAG-AF9; P42568; inhibition, % at 10 µM; 350,000 compounds, 0.47% hits;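 active = every replicate reaching a set inhibition limit, whatever the replicate mean, cut at about 25% in these data; inconclusive = mean inhibition reaches that limit but some replicates miss it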;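 note: 0% = plate neutral control median and 100% = total signal loss; the record names both 10 and 1 µM as test concentration; the first replicate is given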
Target sequence (P42568 whole entry, looked up): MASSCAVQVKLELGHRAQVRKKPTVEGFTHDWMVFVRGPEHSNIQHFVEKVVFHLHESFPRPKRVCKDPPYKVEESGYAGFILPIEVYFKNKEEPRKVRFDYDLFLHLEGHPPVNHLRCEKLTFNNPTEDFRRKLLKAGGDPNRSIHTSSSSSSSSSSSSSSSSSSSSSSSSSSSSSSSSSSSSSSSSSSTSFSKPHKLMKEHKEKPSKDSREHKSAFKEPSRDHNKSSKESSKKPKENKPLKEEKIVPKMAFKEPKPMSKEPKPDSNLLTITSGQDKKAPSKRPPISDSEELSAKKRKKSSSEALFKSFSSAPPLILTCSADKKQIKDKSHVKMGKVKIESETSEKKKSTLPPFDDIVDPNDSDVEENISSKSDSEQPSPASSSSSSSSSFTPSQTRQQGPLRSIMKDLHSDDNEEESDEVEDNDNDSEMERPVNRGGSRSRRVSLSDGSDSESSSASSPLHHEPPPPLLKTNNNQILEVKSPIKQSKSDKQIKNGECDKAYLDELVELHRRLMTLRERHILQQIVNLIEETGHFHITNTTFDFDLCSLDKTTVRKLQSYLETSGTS
Calb FLC: affects C. albicans growth with fluconazole. C. albicans CaCi-2 (fluconazole-resistant clinical isolate) + fluconazole, Alamar Blue growth, 48 h. growth inhibition, % (no concentration beside the values). 300,000 compounds, 0.57% hits;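 active = most replicates above 75%; inconclusive = exactly half above 75%; inactive = most below 75%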;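 note: all wells also contain fluconazole at 8 µg/ml as a sub-toxic cotreatment; 0% = median of DMSO wells and 100% = median of geldanamycin control wells; wells of about 8 µL received 7.5 nL stock; the first replicate is given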
T cruzi repl: blocks replication of Trypanosoma cruzi; 300,000 compounds, 1.4% hits; T. cruzi beta-gal in NIH3T3, luminescence, 90 h; inhibition, % (no concentration beside the values); AID 1885;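 active = mean inhibition across valid replicates above about 55%, limit read from the data; inconclusive = mean below that limit but half or more replicates reach it; inactive = mean below it, under half of replicates reach it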;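 note: signal also drops with host cell toxicity which is not excluded here; 0% = plate median of DMSO wells and 100% = zero luminescence signal; higher percent means less beta-gal luminescence so fewer parasites; stock transfer was 50 nL into about 50 µL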
FGF22 binding: shifts melting point of recombinant human FGF22. Q9HCT0. recombinant FGF22 thermal shift, SYPRO orange fluorescence; percent of sucrose octasulfate shift, DMSO zero. calls only at 9.99 µM. 340,000 compounds, 1.5% hits. AID 651658;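 active = melting point raised past a set limit in the mean and every replicate; inconclusive = no clear call; three in four hits are not shown here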
Target sequence (Q9HCT0 whole entry, looked up): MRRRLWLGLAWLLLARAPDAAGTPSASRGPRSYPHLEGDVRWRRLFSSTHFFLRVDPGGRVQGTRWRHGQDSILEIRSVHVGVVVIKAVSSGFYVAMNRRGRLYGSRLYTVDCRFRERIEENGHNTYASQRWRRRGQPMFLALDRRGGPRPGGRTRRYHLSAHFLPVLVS
ALR inh: human ALR oxidase inhibition via reduced H2O2. purified ALR, DTT oxidation, H2O2 HRP-luminol luminescence. inhibition, % (no concentration beside the values). 290,000 compounds, 3.8% hits. AID 485317;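 active = mean and each replicate at 75% or more; inconclusive = only one of the two met; inactive = neither met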;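 note: stock transfer was 7.5 nL into about 7.5 µL; 0% = neutral wells and 100% = wells with inactivated enzyme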
Target sequence (P55789 whole entry, looked up): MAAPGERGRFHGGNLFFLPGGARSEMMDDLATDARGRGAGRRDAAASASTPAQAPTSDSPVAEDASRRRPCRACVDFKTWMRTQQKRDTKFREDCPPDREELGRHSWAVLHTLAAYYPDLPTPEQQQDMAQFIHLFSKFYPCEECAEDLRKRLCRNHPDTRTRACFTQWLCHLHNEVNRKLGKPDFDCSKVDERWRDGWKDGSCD
RanGTP-Impb inh: disruptors of Ran-importin-beta complex formation – biochemical, FRET, CFP-Ran, YFP-importin-beta, homogeneous, primary screen; AID 2216; cell-free CFP-Ran/YFP-importin-beta FRET ratio; 300,000 compounds, 1.1% hits; inhibition, % (no concentration beside the values);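 active = most replicates above 15%; inconclusive = exactly half above 15%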;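 note: 0% = DMSO wells and 100% = Ran loaded with GDP instead of GTP; wells of about 40 µL received 100 nL stock; the first replicate is given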
rRNA inh HTS OD600: recorded beside rRNA inh HTS, whose call it bears; OD600 change, %; measured here: OD600 growth;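 optical density of the mix in the first replicate; 0 = DMSO median and -100 = no signal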
rRNA inh HTS RFP: also measured in rRNA inh HTS; calls as there; RFP signal change, %; measured here: RFP humanized mutant strains;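 first replicate; 0 = DMSO median and -100 = no signal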
Active calls of the source: *; i = inactive; ? = inconclusive; · = not tested or not shown. This is a subset; count on the stated rates, not on these rows.

#	molecule	Beta cell apopt	rRNA inh HTS	rRNA inh HTS OD600	rRNA inh HTS RFP	MLL AF4-AF9 inh
1	COc1ccc(S(=O)(=O)N2CCCC(C(=O)N3CCOCC3)C2)cc1Cl (centres undefined)	-4.4	4.0	4.3	-0.3	2.5
2	O=C(OCC(=O)N1CCc2ccccc21)c1cncc(Br)c1	-6.3	8.8	6.3	-6.6	-0.7
3	Nc1cccc(C(=O)N/N=C/c2ccsc2)c1	-1.4	12.0	8.0	-0.9	0.9
4	COCC(C)NS(=O)(=O)c1ccc(C(=O)NC(Cc2ccccc2)c2ccccc2)cc1 (centres undefined)	-5.2	2.3	-15.9	-1.2	1.1
5	COc1cc([N+](=O)[O-])cc2cc(C(=O)N3CCN=C3c3ccccc3)c(=O)oc12	-5.3	12.4	15.7	8.6	-6.0
6	CC(=O)c1ccc(Nc2nc(C)cc(C)n2)cc1	-2.2	6.7	-0.4	3.5	-3.0
7	Cc1cccc(C)c1NC(=O)CNCC(=O)Nc1c(C)cccc1C	-0.7	1.8	4.9	-4.8	0.4
8	O=[N+]([O-])c1ccc(Cl)c(-c2ccc(/C=N/c3c(-c4ccco4)nc4ccccn34)o2)c1	-1.0	·	·	·	·
9	COc1cccc2oc3ccc(C#CC4(N)CCCCC4)cc3c(=O)c12	4.5	-12.3	-13.9	10.7	5.0
10	CC(Oc1ccc(-c2ccccc2)c(F)c1)c1ccn(S(=O)(=O)c2cccc3ccccc23)n1 (centres undefined)	16.7	·	·	·	·
11	O=C(NCC1CCCO1)c1ccccc1 (centres undefined)	2.0	·	·	·	·
12	COCCN(C(=O)c1c(C)noc1C)c1c(N)n(CC(C)C)c(=O)[nH]c1=O	-6.3	1.5	1.1	-4.1	1.0
13	COc1ccc(CN2CCCC(CO)(Cc3ccc(F)cc3)C2)c(OC)c1OC (centres undefined)	·	2.1	5.3	0.1	2.4
14	Cc1cc(C)nc(SCc2nnc(SCC(=O)Nc3ncc(C)s3)n2Cc2ccco2)n1	-1.4	·	·	·	·
15	CN1CCN(CCC(=O)Nc2ccccc2)CC1	-9.5	8.6	18.6	2.2	1.5

#	Calb FLC	T cruzi repl	FGF22 binding	ALR inh	RanGTP-Impb inh
1	-5.7	-9.6	i	-0.2	2.5
2	-5.1	-7.5	i	-1.2	-0.9
3	-1.4	-7.5	·	-8.6	1.8
4	-1.0	13.8	i	-29.8	9.6
5	-3.1	2.8	i	-1.6	2.2
6	5.7	-14.9	i	-15.0	2.9
7	-5.1	-6.4	i	-10.4	-0.8
8	-2.4	-11.5	·	·	0.7
9	24.8	17.1	i	42.6	1.1
10	31.5	17.7	·	·	0.1
11	9.8	0.3	·	-13.0	1.2
12	·	·	i	1.6	·
13	-6.1	11.4	i	-1.8	6.2
14	36.7	12.0	·	-18.8	-4.4
15	0.0	-5.1	i	-3.1	3.5

The results go on:
#	molecule	Beta cell apopt	rRNA inh HTS	rRNA inh HTS OD600	rRNA inh HTS RFP	MLL AF4-AF9 inh
16	N#Cc1ccsc1NC(=O)COC(=O)c1ccc(NC(N)=O)cc1	1.7	-0.9	-3.3	39.5	-7.5
17	CCOc1c(C)cnc2c1c(=O)n(Cc1ccccc1Cl)c(=O)n2C	9.9	6.0	4.6	-0.3	-1.7
18	COc1ccc(C(=O)OC(C)CN2CCOCC2)cc1OC (centres undefined)	2.3	·	·	·	·
19	Cc1occc1-c1nnc(SCCCC(=O)c2ccc(F)cc2)n1C	2.8	·	·	·	·
20	OC(CN1CCCCCC1)CN(c1ccccc1)c1ccccc1 (centres undefined)	30.6	10.1	6.7	1.6	-0.2
21	Cc1cccc(OCCCC(=O)O)c1	-6.0	·	·	·	·
22	NC(Cc1c[nH]c2ccc(OCc3ccccc3)cc12)C(=O)O (centres undefined)	1.5	12.0	13.0	2.5	4.3
23	CCS(=O)(=O)N1CCC(C(=O)NCCc2ccc(C)cc2)CC1	-4.9	9.9	9.9	0.9	8.7
24	CN1CCN(/C(=N\O)c2nonc2N)CC1	-1.9	·	·	·	·
25	CCN(CC)S(=O)(=O)c1cc(NS(=O)(=O)c2ccc(Cl)c(C(=O)O)c2)ccc1C	3.5	3.6	-2.3	-6.6	-4.4
26	Cc1cccc(N(CC(=O)NC2CCCC2)C(=O)CNC(=O)c2ccco2)c1C	-0.6	2.5	2.1	-0.9	0.1
27	COC(=O)c1c(-c2ccccc2)csc1NC(=O)C1CC=CCC1C(=O)O (centres undefined)	-9.7	-16.0	-28.5	-0.7	-1.8
28	O=C1CCCC(c2ccccc2)N1 (centres undefined)	-0.9	8.8	20.8	4.8	0.7
29	CCOC(=O)C1CCCN(CC(=O)Nc2cc(C)cc(C)c2)C1 (centres undefined)	-13.7	-4.0	-7.5	-2.0	-1.0
30	COC(=O)C1=C(C)NC2=C(C(=O)c3ccccc32)C1c1ccc(-c2ccc(C(=O)O)cc2)o1 (centres undefined)	-1.6	·	·	·	·

#	Calb FLC	T cruzi repl	FGF22 binding	ALR inh	RanGTP-Impb inh
16	12.7	-4.6	i	·	-3.7
17	-20.8	6.6	i	-2.1	?
18	-2.5	-1.5	·	0.1	1.1
19	·	-19.6	·	67.9	0.7
20	-69.0	-21.5	i	99.0*	0.1
21	-0.7	-35.8	·	7.0	0.0
22	2.3	-1.5	i	-13.1	0.6
23	-0.2	-6.4	i	-3.4	-3.0
24	-11.9	-5.0	·	-1.5	-0.2
25	5.1	-8.7	i	-0.6	0.4
26	15.5	-5.7	i	5.3	-0.9
27	-1.8	-3.2	i	1.1	-1.3
28	13.7	-5.8	i	-3.5	3.0
29	49.2	-2.6	i	7.5	-3.7
30	9.9	-4.7	·	45.6	-37.3

Next records
#	molecule	Beta cell apopt	rRNA inh HTS	rRNA inh HTS OD600	rRNA inh HTS RFP	MLL AF4-AF9 inh
31	CCn1cc(S(=O)(=O)CC(=O)Nc2ccc3c(c2)OCO3)c2ccccc21	0.3	-4.6	-18.0	4.1	5.9
32	CCN(CC)S(=O)(=O)c1ccc2[nH]c(=O)cc(C(=O)Nc3cccc(C(C)=O)c3)c2c1	3.6	11.1	20.9	-1.0	-2.1
33	CCCN(CCC)CCNC(=O)C1CCCN(S(=O)(=O)c2ccc3c(c2)oc(=O)n3C)C1 (centres undefined)	-1.4	·	·	·	·
34	CCNC(=O)CC1SC(=Nc2ccc(C)cc2)N(CC)C1=O (centres undefined)	3.3	·	·	·	·
35	COc1cccc(OCc2cc(C(=O)N(C)CCOc3ccc(C)cc3)no2)c1	·	-3.0	-17.5	4.3	-5.6
36	CCc1c(O)cc2n(c1=O)-c1ccc(Cl)cc1C2(C)C	1.7	·	·	·	·
37	O=C(c1ccccc1Cl)N1CCC(n2cccc2)CC1	5.2	9.0	-2.8	2.9	5.0
38	COCCn1c(SCC(=O)Nc2ccccc2OC)nc2ccccc2c1=O	3.0	-10.7	-7.6	1.3	1.5
39	O=C(NCc1ccncc1)c1cccc(Cn2cc(Br)cn2)c1	1.6	·	·	·	·
40	CCCn1c(SCC(=O)Nc2ccc(Cl)cc2F)nc(O)cc1=O	-0.8	2.9	-0.7	0.1	-1.1
41	COc1cccc(N(C(=O)Cn2nnc(-c3ccc(C)o3)n2)C(C(=O)NC2CCCC2)c2ccncc2)c1 (centres undefined)	3.6	7.8	9.3	-2.7	1.4
42	Cc1nnc(SCC(=O)Nc2cc(Cl)ccc2Cl)n1CC1CCCO1 (centres undefined)	-4.9	-0.1	-1.8	-1.5	-1.8
43	Cc1ccc(O)c(-c2cc(-c3ccccc3F)[nH]n2)c1	-1.1	·	·	·	·
44	CCOc1ccc(/C=N/OCC(=O)Nc2cc(C)on2)cc1	-1.5	2.8	6.8	-1.8	-5.1
45	CC(C)N(C)S(=O)(=O)c1ccc(NC(=O)CSC(=S)N2CCCC2)cc1	2.4	-3.4	-6.6	1.1	-1.5

#	Calb FLC	T cruzi repl	FGF22 binding	ALR inh	RanGTP-Impb inh
31	5.5	-13.2	i	-8.1	?
32	-3.3	-0.4	·	·	3.9
33	7.3	-7.1	·	11.0	-2.1
34	2.2	-9.1	·	-11.9	3.7
35	3.4	15.0	i	-33.8	?
36	-5.0	6.7	·	20.0	-3.4
37	-4.7	-4.5	i	2.1	2.9
38	0.8	0.1	i	-0.3	-1.3
39	-5.2	7.2	·	-11.2	4.0
40	·	·	i	98.7*	·
41	16.1	-12.9	i	-4.8	4.8
42	2.9	-3.4	i	22.2	-4.8
43	-1.3	-9.9	·	61.1	5.5
44	13.5	-4.1	i	-6.9	?
45	-8.7	-0.8	i	-4.4	-1.1

4 compounds out of the list, ordered by heavy-atom count, smallest number first.
#	molecule	Beta cell apopt	rRNA inh HTS	rRNA inh HTS OD600	rRNA inh HTS RFP	MLL AF4-AF9 inh
37	O=C(c1ccccc1Cl)N1CCC(n2cccc2)CC1	5.2	9.0	-2.8	2.9	5.0
40	CCCn1c(SCC(=O)Nc2ccc(Cl)cc2F)nc(O)cc1=O	-0.8	2.9	-0.7	0.1	-1.1
42	Cc1nnc(SCC(=O)Nc2cc(Cl)ccc2Cl)n1CC1CCCO1 (centres undefined)	-4.9	-0.1	-1.8	-1.5	-1.8
32	CCN(CC)S(=O)(=O)c1ccc2[nH]c(=O)cc(C(=O)Nc3cccc(C(C)=O)c3)c2c1	3.6	11.1	20.9	-1.0	-2.1

#	Calb FLC	T cruzi repl	FGF22 binding	ALR inh	RanGTP-Impb inh
37	-4.7	-4.5	i	2.1	2.9
40	·	·	i	98.7*	·
42	2.9	-3.4	i	22.2	-4.8
32	-3.3	-0.4	·	·	3.9

More results.
#	molecule	Beta cell apopt	rRNA inh HTS	rRNA inh HTS OD600	rRNA inh HTS RFP	MLL AF4-AF9 inh
46	COc1ccc(N(C(C)C(=O)N(C)Cc2ccccc2)S(C)(=O)=O)cc1 (centres undefined)	2.4	-4.4	-3.5	1.1	-21.0
47	O=C(CN1C(=O)c2ccccc2S1(=O)=O)N1CCCCC1	4.0	2.1	0.6	-1.8	0.6
48	O=C(NC1(C(F)(F)F)N=C2SCCN2C1=O)c1ccccc1F (centres undefined)	-0.6	12.8	11.3	1.1	-3.2
49	COc1cc(OC)cc(C(=O)OCC(=O)Nc2cccc(S(=O)(=O)NC3=NCCCCC3)c2)c1	-5.2	-8.7	-9.0	3.4	-1.3
50	COc1ccccc1NS(=O)(=O)c1ccc2c(c1)NC(=O)CC(=O)N2	-2.5	3.0	8.9	-0.8	-2.7
51	CCCn1c(CNC(=O)c2cccs2)nc2ccccc21	2.6	2.2	-1.5	0.8	-5.6

#	Calb FLC	T cruzi repl	FGF22 binding	ALR inh	RanGTP-Impb inh
46	-3.8	2.6	i	-7.7	-1.2
47	-8.2	-3.1	i	-0.6	-1.1
48	-2.6	-0.5	i	-6.2	?
49	·	·	i	0.1	·
50	-1.6	-27.4	i	3.0	-2.9
51	-5.1	-1.5	i	2.5	1.1
